NPYLR7 ag = activates Aedes aegypti NPYLR7 receptor; HEK293T NPYLR7/Galpha15, GCaMP6s calcium fluorescence; activation, % at 10 µM; actives 0.15% (n = 270,000); AID 1259423; in the data active means activation above about 40%;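 further: 0% = vehicle and 100% = reference agonist at the receptor; some compounds past the cut are filed as inactive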
NPYLR7 ag max-min = second read-out of NPYLR7 ag, no call of its own (marks repeat the call); activation, %; measured here: Max-Min RFU normalised activation; some inactives read as strong as hits;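 span of the calcium signal over five minutes; 0% = vehicle and 100% = native peptide agonist; compound fluorescence can raise it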
* = called active by the depositor; & = joins results of further samples. These rows are one share of the data. The share of hits here may be higher or lower than overall.

Screening COc1cc(N(C)CC2CC(=O)N(C3CCCC3)C2)ncn1 (stereo unspecified) returned NPYLR7 ag 7 and NPYLR7 ag max-min 4.
`Clc1ccc2c(-n3ccnc3)ccnc2c1` gave NPYLR7 ag -11 and NPYLR7 ag max-min -17.
Screening CCCCCN(CC(=O)N1CCc2sccc2C1c1ccc(Cl)cc1Cl)C(=O)c1ccc(Br)cc1 (stereo unspecified) returned NPYLR7 ag 5 and NPYLR7 ag max-min 6.
COc1cccc(CN(Cc2cccc(C(F)(F)F)c2)Cc2nc(C(=O)NCCN3CCOCC3)co2)c1 was read as NPYLR7 ag 9 and NPYLR7 ag max-min 1.
O=C(/C=C/c1ccncc1)NC1CS(=O)(=O)CC1N1CCCCC1 (stereo unspecified) was read as NPYLR7 ag 7 and NPYLR7 ag max-min 4.
`CCCNC(=O)C1(C)CCCN(Cc2cccs2)C1` (stereo unspecified) gave NPYLR7 ag 0 and NPYLR7 ag max-min -1.
Screening O=C(C1=C(O)C(=O)N(c2ccc(=O)[nH]c2)C1c1ccc(Cl)cc1)c1cccs1 (stereo unspecified) returned NPYLR7 ag -1 and NPYLR7 ag max-min 14.
Screening Cc1nc2n(n1)C(=O)C(C(c1cccs1)N1CCCC(C)C1)S2 (stereo unspecified) returned NPYLR7 ag -4 and NPYLR7 ag max-min -5.
`O=C(c1csc2ccccc12)N1CCN(C(c2ccccc2)c2ccc(Cl)cc2)CC1` (stereo unspecified) gave NPYLR7 ag 24 and NPYLR7 ag max-min 10.
For N#Cc1ccc(S(=O)(=O)NCCCn2nc3ccccn3c2=O)cc1Cl the results were NPYLR7 ag 2 and NPYLR7 ag max-min 1.
O=C(Nc1ccc(C(F)(F)F)cc1)N1CCN(Cc2ccncc2)CC1 was read as NPYLR7 ag 7 and NPYLR7 ag max-min 3.
Screening CC(=O)NCCNc1nc2cc(-c3cccc(C(F)(F)F)c3)sc2c(=O)n1C returned NPYLR7 ag 7 and NPYLR7 ag max-min 2.
Screening CCOc1ccc(C2=Nn3c(CC)nnc3SC2)cc1 returned NPYLR7 ag 2 and NPYLR7 ag max-min -1.
`Cc1ccc(Cc2nc(N3CCCNCC3)c3c(-c4cccnc4)noc3n2)cc1` gave NPYLR7 ag 1 and NPYLR7 ag max-min 12.
`COc1cc(/C=C\C(=O)Nc2cc(-c3cccs3)nn2-c2nc(C)cc(=O)[nH]2)cc(OC)c1OC` gave NPYLR7 ag 1 and NPYLR7 ag max-min -2.
Screening O=C1COc2ccc(-c3cccc(-c4cccc(NC(=O)c5cc6ccccc6s5)c4)n3)cc2N1 returned NPYLR7 ag -3 and NPYLR7 ag max-min 3.
Screening CN(C)c1ccccc1C(=O)N1CCCC(C(=O)c2ccc3ccccc3c2)C1 (stereo unspecified) returned NPYLR7 ag 7 and NPYLR7 ag max-min 9.
Screening Fc1ccc(Oc2ncnc3[nH]ccc23)cc1Cl returned NPYLR7 ag -3 and NPYLR7 ag max-min -4.
For Cc1ccc2nc(CN(C)Cc3cccc(Cl)c3Cl)cn2c1 the results were NPYLR7 ag 3 and NPYLR7 ag max-min 2.
CCc1nc(-c2nccn2CC2(c3ccccc3)CCOCC2)c(C)[nH]1 was read as NPYLR7 ag 1 and NPYLR7 ag max-min -4.
Cc1ccc(C)c(NCC(=O)N2CCN(S(=O)(=O)c3ccc4c(c3)CCC4)CC2)c1 was read as NPYLR7 ag 0 and NPYLR7 ag max-min 6.
`Cc1cc(C(=O)N2CC[C@@H](c3ccc4c(c3)OCO4)[C@H](O)C2)cc(=O)[nH]1` gave NPYLR7 ag -4 and NPYLR7 ag max-min -4.
CC(=O)[C@@]1(O)CC[C@H]2[C@@H]3C[C@H](C)C4=CC(=O)C=C[C@]4(C)[C@@]3(F)[C@@H](O)C[C@@]21C was read as NPYLR7 ag 2 and NPYLR7 ag max-min 0.
For CN(c1nc2ccccc2o1)C1CCN(CC(F)(F)F)C1=O (stereo unspecified) the results were NPYLR7 ag -5 and NPYLR7 ag max-min -6.
Screening Cn1cc(CN2CCCCC2c2cccnc2)c(-c2ccc3c(c2)OCCO3)n1 (stereo unspecified) returned NPYLR7 ag 3&-2 and NPYLR7 ag max-min 4&-5.
`O=C(Nc1ccc2c(c1)CCO2)c1ccc2ccccc2n1` gave NPYLR7 ag 9 and NPYLR7 ag max-min 7.
COCCNC(=O)c1ccc(-n2nc(-c3ccc(OC)cc3)cc2N)cc1 was read as NPYLR7 ag 7 and NPYLR7 ag max-min 6.
`CCN1CCN(C(c2ccccc2Cl)C2Sc3nc(C)nn3C2=O)CC1` (stereo unspecified) gave NPYLR7 ag 0 and NPYLR7 ag max-min 2.
CCN(CC)c1ccc(NC(=S)N2CC(=O)N3CCc4ccc(F)cc4C3C2)cc1 (stereo unspecified) was read as NPYLR7 ag 30 and NPYLR7 ag max-min 12.
Screening Cc1ccc(C2(O)CCN(C(=O)c3cc(=O)[nH]c4ccc(F)cc34)CC2)nc1 returned NPYLR7 ag 9 and NPYLR7 ag max-min 5.
For Cc1cnc(CN(C)CC(=O)Nc2cccc(F)c2C)[nH]1 the results were NPYLR7 ag -1 and NPYLR7 ag max-min -1.
Screening COc1cn(CC(=O)NCc2ccccc2Cl)c(CN2CCN(C(C)=O)CC2)cc1=O returned NPYLR7 ag -3 and NPYLR7 ag max-min -4.
C=C(C)Cn1c(=O)c2c(nc3n2CCN3c2ccc(C(=O)OCC)cc2)n(C)c1=O was read as NPYLR7 ag 6 and NPYLR7 ag max-min 1.
For O=C(Nc1ccc(Cl)c(N2CCCS2(=O)=O)c1)c1ccc(C(F)(F)F)cc1 the results were NPYLR7 ag -4 and NPYLR7 ag max-min 2.
COc1ccc(/C=C2\SC(=Nc3ccccc3Cl)NC2=O)c(OC)c1 was read as NPYLR7 ag -13 and NPYLR7 ag max-min -24.
COC(=O)c1ccc(CC2(C)C(=O)Nc3ccc(-c4ccccc4)cc32)o1 (stereo unspecified) was read as NPYLR7 ag 1 and NPYLR7 ag max-min 9.

Entries shown so far with a CF3 group, in the order listed:
COc1cccc(CN(Cc2cccc(C(F)(F)F)c2)Cc2nc(C(=O)NCCN3CCOCC3)co2)c1 was read as NPYLR7 ag 9 and NPYLR7 ag max-min 1.
O=C(Nc1ccc(C(F)(F)F)cc1)N1CCN(Cc2ccncc2)CC1 was read as NPYLR7 ag 7 and NPYLR7 ag max-min 3.
Screening CC(=O)NCCNc1nc2cc(-c3cccc(C(F)(F)F)c3)sc2c(=O)n1C returned NPYLR7 ag 7 and NPYLR7 ag max-min 2.
For CN(c1nc2ccccc2o1)C1CCN(CC(F)(F)F)C1=O (stereo unspecified) the results were NPYLR7 ag -5 and NPYLR7 ag max-min -6.
For O=C(Nc1ccc(Cl)c(N2CCCS2(=O)=O)c1)c1ccc(C(F)(F)F)cc1 the results were NPYLR7 ag -4 and NPYLR7 ag max-min 2.

Next section:
`OCCNc1ncnc2sc3c(c12)CCCCC3` gave NPYLR7 ag 10 and NPYLR7 ag max-min 11.
Screening O=C1NC(c2ccccc2Cl)N2Cc3ccccc3CC12 (stereo unspecified) returned NPYLR7 ag 10 and NPYLR7 ag max-min 8.
For Cc1cccc(OCCC(=O)Nc2cccc3ncccc23)c1 the results were NPYLR7 ag 4 and NPYLR7 ag max-min 0.
Screening COc1ccc(-c2cccc(-c3cccc(NC(=O)c4ccc(F)cc4)c3)n2)cc1 returned NPYLR7 ag 0 and NPYLR7 ag max-min 5.
CCSc1n[nH]c(-c2cccs2)n1 was read as NPYLR7 ag 8 and NPYLR7 ag max-min 5.
CCC(=O)N1CCCCC1C(=O)Nc1ccc(Cl)cc1 (stereo unspecified) was read as NPYLR7 ag 3 and NPYLR7 ag max-min 3.
Cc1nnc2sc(-c3csc4c3CCCC4)nn12 was read as NPYLR7 ag -3 and NPYLR7 ag max-min -5.
Screening COC(=O)Cn1c(=O)c2c(n(Cc3ccccc3)c1=O)N=C1CCCC(=O)C1C2c1ccc(C)cc1 (stereo unspecified) returned NPYLR7 ag 9 and NPYLR7 ag max-min 4.
COc1cc(C2C(C#N)=C(C)N=C(C)C2C#N)cc(OC)c1OC (stereo unspecified) was read as NPYLR7 ag 6 and NPYLR7 ag max-min 6.
`Cc1ccc(OC(=O)CCC(=O)Nc2cccc(C#N)c2)cc1` gave NPYLR7 ag 1 and NPYLR7 ag max-min -2.
Screening CC(=O)N1CCN(S(=O)(=O)c2ccc3c(c2)CCCC3)CC1 returned NPYLR7 ag -5 and NPYLR7 ag max-min 15.
Screening CCCN1C(=O)C(=Cc2c(NCc3ccco3)nc3ccc(C)cn3c2=O)SC1=S returned NPYLR7 ag 16 and NPYLR7 ag max-min 17.
Screening CCc1cc(C(=O)N/N=C\C=C2\N(C)c3ccccc3C2(C)C)c2ccccc2n1 returned NPYLR7 ag 15 and NPYLR7 ag max-min 18.
For Cc1ccc(CN(CCc2ccccc2)C(=O)CN(Cc2c(F)cccc2Cl)CC2CCCO2)o1 (stereo unspecified) the results were NPYLR7 ag 1 and NPYLR7 ag max-min 5.
Screening Fc1ccccc1NC(=S)Nc1cccnc1 returned NPYLR7 ag -1 and NPYLR7 ag max-min -2.
Cc1ccc(NC(=O)N2CCC(C3OCCO3)CC2)cc1F was read as NPYLR7 ag 9 and NPYLR7 ag max-min 5.
`O=C(NC(c1ccc2ccccc2n1)c1cccs1)C1CCN(CCOc2ccc(Cl)cc2)CC1` (stereo unspecified) gave NPYLR7 ag 3 and NPYLR7 ag max-min 3.
For O=C(N/N=C\c1ccco1)c1cc(-c2ccc(Cl)cc2)n[nH]1 the results were NPYLR7 ag 3 and NPYLR7 ag max-min 1.
Cc1cc(C)c2c(CC(=O)N3CCCC(c4ccn[nH]4)C3)coc2c1 (stereo unspecified) was read as NPYLR7 ag 10 and NPYLR7 ag max-min 9.
For COc1cccc(CCNC(=O)C2CC=CCC2C(=O)N2CCc3ccccc3C2)c1 (stereo unspecified) the results were NPYLR7 ag -3 and NPYLR7 ag max-min -11.
Screening CC(=O)NC(c1ccc(C(C)C)cc1)c1c(O)ccc2ccc(O)cc12 (stereo unspecified) returned NPYLR7 ag -3 and NPYLR7 ag max-min -6.
For COc1ccc(Cl)cc1NC(=O)N1CCc2c(nc(C)[nH]c2=O)C1 the results were NPYLR7 ag 24 and NPYLR7 ag max-min 10.
CCN(CC)C(=O)CSc1ncnc2c1nnn2C was read as NPYLR7 ag 4 and NPYLR7 ag max-min 3.
`COCCn1cc(C(=O)N2CCN(C(C)=O)CC2)c2nn(-c3ccccc3)c(=O)c-2c1` gave NPYLR7 ag 5 and NPYLR7 ag max-min 4.

In the list so far, 2 have an aryl thioether with sulfur outside any ring.
CCSc1n[nH]c(-c2cccs2)n1 was read as NPYLR7 ag 8 and NPYLR7 ag max-min 5.
CCN(CC)C(=O)CSc1ncnc2c1nnn2C was read as NPYLR7 ag 4 and NPYLR7 ag max-min 3.

Continuation:
O=C(Nc1ccc(-c2ccn[nH]2)cc1)C1CCCN(Cc2ccccn2)C1 (stereo unspecified) was read as NPYLR7 ag 12 and NPYLR7 ag max-min 6.
For CCNC(=O)NC(=O)CSc1nc(C)nc2sc(C)c(C)c12 the results were NPYLR7 ag 5 and NPYLR7 ag max-min 7.
Screening N#Cc1cnc2ccc(Cl)cc2c1NCc1ccccc1 returned NPYLR7 ag -2 and NPYLR7 ag max-min -6.
For Cc1ccccc1-c1ncc(-c2nccn2CCc2n[nH]c(=O)[nH]2)s1 the results were NPYLR7 ag 17 and NPYLR7 ag max-min 6.
For COc1cccc(CNC(=O)c2cccnc2Nc2cccc(Cl)c2)c1 the results were NPYLR7 ag 5 and NPYLR7 ag max-min 4.
Screening COc1ccc2c(c1)C(CNCc1cccc(C(=O)O)c1)=CC(C)(C)CO2 returned NPYLR7 ag 2 and NPYLR7 ag max-min 11.
For COc1cccc(NC(=O)C2(C)CCN2CC2CCCCC2)c1 (stereo unspecified) the results were NPYLR7 ag 2 and NPYLR7 ag max-min 1.
For COCCCN(CC(=O)Nc1cc(C(C)(C)C)nn1-c1ccc(C)cc1C)C(=O)c1ccccc1F the results were NPYLR7 ag -2 and NPYLR7 ag max-min 4.
For O=C(Nc1ccc(Oc2cccnc2)cc1)C1CCN(Cc2cccnc2)CC1 the results were NPYLR7 ag -3 and NPYLR7 ag max-min -5.
For CC1=NN(C(=O)CC#N)C(O)(c2ccccc2)C1 (stereo unspecified) the results were NPYLR7 ag -2 and NPYLR7 ag max-min -4.
For COc1cc(C)c(S(=O)(=O)N2CCN(c3nccc(-c4ccc5c(c4)OCO5)n3)CC2)c(C)c1C the results were NPYLR7 ag -7 and NPYLR7 ag max-min -8.
`CN1CCCN(C(=O)CCCc2ccc(NC3OC(C4COC(C)(C)O4)[C@@H]4OC(C)(C)O[C@H]34)cc2)CC1` (stereo partly specified) gave NPYLR7 ag -7 and NPYLR7 ag max-min -11.
`Cc1ccc(NC(=O)NC2C(C)CN(Cc3ccccc3)CC2C)c(C)c1` (stereo unspecified) gave NPYLR7 ag 4 and NPYLR7 ag max-min 2.
COc1cccc(C(=O)N2CCN(Cc3ccnc(C(C)C)n3)CC2)c1 was read as NPYLR7 ag 5 and NPYLR7 ag max-min 0.
Screening O=C1NCC(=O)N2CCN(C(=O)Nc3ccccc3Oc3ccccc3)CC12 (stereo unspecified) returned NPYLR7 ag 0 and NPYLR7 ag max-min -2.

Sorted by number of heavy atoms (largest number first): part of the list above.
For O=C(Nc1ccc(Oc2cccnc2)cc1)C1CCN(Cc2cccnc2)CC1 the results were NPYLR7 ag -3 and NPYLR7 ag max-min -5.
For O=C(Nc1ccc(Cl)c(N2CCCS2(=O)=O)c1)c1ccc(C(F)(F)F)cc1 the results were NPYLR7 ag -4 and NPYLR7 ag max-min 2.
`Cc1cc(C(=O)N2CC[C@@H](c3ccc4c(c3)OCO4)[C@H](O)C2)cc(=O)[nH]1` gave NPYLR7 ag -4 and NPYLR7 ag max-min -4.

Source: PubChem (Fisher Drug Discovery Resource Center)
